NPYLR7 agonist: mosquito NPYLR7 agonism; HEK293T NPYLR7/Galpha15, GCaMP6s calcium fluorescence; activation, % at 10 µM; actives 0.15% (n = 270,000); AID 1259423; in the data active = activation above about 40%;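 also: 0% = vehicle and 100% = reference agonist at the receptor; some compounds past the cut are filed as inactive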
NPYLR7 agonist max-min: second read-out of NPYLR7 agonist, no call of its own (marks repeat the call); activation, %; measured here: Max-Min RFU normalised activation; some inactives read as strong as hits;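 span of the calcium signal over five minutes; 0% = vehicle and 100% = native peptide agonist; compound fluorescence can raise it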
Numbers without * were called inactive; & = joins results of further samples.

Screening Cc1cnn(CCC(=O)N2CCNCC2C(=O)NCc2cccnc2)c1 (stereo not drawn) returned NPYLR7 agonist 4 and NPYLR7 agonist max-min -5.
Screening O=C(c1cnn(-c2ccccc2)c1C(F)(F)F)N1CCN(Cc2cc(=O)c(OCc3ccc(C(F)(F)F)cc3)co2)CC1 returned NPYLR7 agonist 4 and NPYLR7 agonist max-min 3.
Screening O=C(O)CSc1nc(Cl)cc(N2CCN(C/C=C/c3ccccc3)CC2)n1 returned NPYLR7 agonist -1 and NPYLR7 agonist max-min -10.
Screening N#CC(=Cc1ccccc1F)S(=O)(=O)c1cc(Br)ccc1Br returned NPYLR7 agonist 3 and NPYLR7 agonist max-min 2.
COc1ccc(-c2nc(C(N)=O)c3[nH]c(=O)n(-c4ccc(OC)cc4OC)c3n2)cc1 was read as NPYLR7 agonist -9 and NPYLR7 agonist max-min -11.
For CC1(C(=O)NS(=O)(=O)c2ccc(Cl)cc2)CCN1C(=O)c1ccco1 (stereo not drawn) the results were NPYLR7 agonist 2 and NPYLR7 agonist max-min 3.
Screening CC(Cl)C(=O)Nc1cc(-c2onc3c2CCCC3)ccc1Cl (stereo not drawn) returned NPYLR7 agonist 1 and NPYLR7 agonist max-min -1.
For CC(=O)N1CCC(NC(=O)CCn2cncn2)CC1 the results were NPYLR7 agonist 3 and NPYLR7 agonist max-min 1.
`Cc1ccc(C(=O)C(C)N(C(=O)c2ccc(Cl)cc2Cl)N2C(=O)CCCC2=O)cc1` (stereo not drawn) gave NPYLR7 agonist -2 and NPYLR7 agonist max-min 0.
Screening CSc1nsc(SCc2csc(-c3ccc(C(F)(F)F)cc3)n2)n1 returned NPYLR7 agonist 22 and NPYLR7 agonist max-min 34.
For Cc1ncc(C[n+]2ccccc2C)c(N)n1 the results were NPYLR7 agonist 3&5 and NPYLR7 agonist max-min 0&0.
For CCc1nc2ccc(C(=O)N3CCN(C(=O)c4ccco4)CC3)cn2c1N(CCN(C)C)CC1CC1 the results were NPYLR7 agonist -1 and NPYLR7 agonist max-min -7.
O=C(CCc1nc(-c2ccccc2F)no1)N[C@H]1COC[C@@H]1N1CCCCC1 was read as NPYLR7 agonist -4 and NPYLR7 agonist max-min -9.
CC(=O)c1cnc2cc(-c3cccc(Br)c3)nn2c1C was read as NPYLR7 agonist -3 and NPYLR7 agonist max-min -4.
CN(Cc1ccccc1)c1cc(-c2ccccc2)nc(SCc2ccc(C(=O)NCc3ccc4c(c3)OCO4)cc2)n1 was read as NPYLR7 agonist -3 and NPYLR7 agonist max-min 2.
For Cc1cn2c3c(=O)n(C)c(=O)n(C)c3nc2n1Cc1ccc(Cl)cc1 the results were NPYLR7 agonist -2 and NPYLR7 agonist max-min 22.
For CC(c1ccccc1)N1CCN(C(=O)CN2CCN(c3ccc(F)cc3)CC2)CC1 (stereo not drawn) the results were NPYLR7 agonist 10 and NPYLR7 agonist max-min 6.
`Cc1cccn2c(=O)c(C=NCCO)c(NCc3ccco3)nc12` gave NPYLR7 agonist 1 and NPYLR7 agonist max-min 1.
`Cc1cc(OS(=O)(=O)c2cn(C)c(=O)n(C)c2=O)ccc1C(C)C` gave NPYLR7 agonist -1 and NPYLR7 agonist max-min -2.
COc1ccc(NC(=O)CSc2nc(=O)n(CCCN(C)C)c3c2CCCC3)cc1OC was read as NPYLR7 agonist 1 and NPYLR7 agonist max-min 7.
For O=C(O)Cn1c(-c2cccs2)n[nH]c1=S the results were NPYLR7 agonist 23 and NPYLR7 agonist max-min 21.
Cc1cccc(-n2c(SCc3nc(C(=O)Nc4ccc(C)c(C)c4)cs3)nnc2-c2cccs2)c1 was read as NPYLR7 agonist 14 and NPYLR7 agonist max-min 16.
For CC(C)c1cc(C(=O)N2CCC3(CC2)c2ccccc2[C@@H](N)[C@@H]3O)cs1 the results were NPYLR7 agonist 7 and NPYLR7 agonist max-min 5.
For CCNC(=O)N1CCc2c(cnc(C)c2-c2noc(-c3ccc(C)cc3)n2)C1 the results were NPYLR7 agonist 19 and NPYLR7 agonist max-min 2.
`COc1cccc(CNC(=O)N2CCN(c3ncccc3C(=O)NCC3CCCO3)CC2)c1` (stereo not drawn) gave NPYLR7 agonist 11 and NPYLR7 agonist max-min 17.
Cc1sc2nc(CSc3ccc(Br)cc3)nc(-n3ccnc3)c2c1C was read as NPYLR7 agonist 5 and NPYLR7 agonist max-min 17.
CCN(CC)c1ccc(/C=N\Nc2cc(N3CCOCC3)nc(N3CCOCC3)n2)cc1 was read as NPYLR7 agonist -9 and NPYLR7 agonist max-min -12.
Screening Cc1cccc(C(CC(=O)O)NC(N)=O)c1 (stereo not drawn) returned NPYLR7 agonist 2 and NPYLR7 agonist max-min 0.
For C=CCn1c(SCC(=O)Nc2ccccc2O)nc2sc(C)c(C)c2c1=O the results were NPYLR7 agonist 6 and NPYLR7 agonist max-min 4.
C[C@H](c1ccccc1)N1C(=O)[C@@H]2CN(C(=O)CC(C)(C)CC(=O)O)CCN2C1=O was read as NPYLR7 agonist -7 and NPYLR7 agonist max-min -13.
For CSc1ccc(NC(=O)c2cccc(-n3ccc(C)n3)c2)cc1 the results were NPYLR7 agonist 5 and NPYLR7 agonist max-min 3.
`CC1(C(=O)O)CCCN1C(=O)c1ccc(C(F)(F)F)cc1` (stereo not drawn) gave NPYLR7 agonist 2 and NPYLR7 agonist max-min 3.
CCN(CC)C(=O)c1cc(-c2ccc(F)cc2)nc2cc(-c3ccccc3)nn12 was read as NPYLR7 agonist 8 and NPYLR7 agonist max-min 8.
For CC(c1nc(C2CC2)no1)S(=O)(=O)Cc1cc(Cl)c2c(c1)OCCCO2 (stereo not drawn) the results were NPYLR7 agonist 5 and NPYLR7 agonist max-min 3.
For O=C(CCCc1ccccc1)Nc1ccnn1C1CCN(C2Cc3ccccc3C2)CC1 the results were NPYLR7 agonist 0 and NPYLR7 agonist max-min -3.
Screening COc1c(C)c2c(c(O)c1C/C=C(\C)CCC(=O)OCCN1CCOCC1)C(=O)OC2 returned NPYLR7 agonist 7 and NPYLR7 agonist max-min 13.
c1ccc2nc(-c3nn4c(CN5CCCCCC5)nnc4s3)ccc2c1 was read as NPYLR7 agonist 16 and NPYLR7 agonist max-min 11.
CCOC(=O)Cn1c(=NC(=O)c2ccc(Cl)s2)sc2cc(S(N)(=O)=O)ccc21 was read as NPYLR7 agonist 0 and NPYLR7 agonist max-min -2.
`CC1c2cc(Br)cnc2NCCC(=O)N1C` (stereo not drawn) gave NPYLR7 agonist 3 and NPYLR7 agonist max-min 2.
`NC(=O)C1CN(S(=O)(=O)c2ccc(Cl)c(C(F)(F)F)c2)c2ccccc2O1` (stereo not drawn) gave NPYLR7 agonist 0 and NPYLR7 agonist max-min 5.
`O=C(NCC1(c2ccccc2)CCC1)C1CCN(c2ccc(C(F)(F)F)cn2)CC1` gave NPYLR7 agonist 10 and NPYLR7 agonist max-min 3.
Screening Cc1oc(-c2ccc(C(F)(F)F)cc2)nc1CC(=O)N1CCc2ccccc2C1c1ccc(Cl)cc1 (stereo not drawn) returned NPYLR7 agonist 25 and NPYLR7 agonist max-min 13.
For C=C(C)C1CC=C(CN2CCC(C(=O)OCC)CC2)CC1 (stereo not drawn) the results were NPYLR7 agonist -1 and NPYLR7 agonist max-min -1.
`Cc1ccccc1CCNC(=O)CSc1nnc(-c2ccco2)n1C` gave NPYLR7 agonist 22 and NPYLR7 agonist max-min 9.
`C=CCn1c(SCC(=O)NC(C)C)nc2c([nH]c3ccccc32)c1=O` gave NPYLR7 agonist -3 and NPYLR7 agonist max-min -4.
Screening CC1(C(=O)Nc2ccccc2Cc2ccccc2)CCN1Cc1csc2ccccc12 (stereo not drawn) returned NPYLR7 agonist 4 and NPYLR7 agonist max-min 3.
Screening Cc1cccc(-c2cc(N)n(-c3ccc(C(=O)N4CCCC5CCCCC54)cc3)n2)c1 (stereo not drawn) returned NPYLR7 agonist -6 and NPYLR7 agonist max-min -10.
For Cc1ccsc1CN(C)C(=O)Nc1ccc(-n2ccnn2)cc1 the results were NPYLR7 agonist -3 and NPYLR7 agonist max-min 12.
For O=S(=O)(c1ccccc1F)N1CCCc2ccccc21 the results were NPYLR7 agonist -7 and NPYLR7 agonist max-min -9.
For CCCc1cc(N2CCN(CC)CC2)n2nc3nc(C)cc(C)c3c2n1 the results were NPYLR7 agonist 4 and NPYLR7 agonist max-min 5.
For COCCNC(=O)c1coc(CN(Cc2ccc(Cl)c(Cl)c2)C(C)c2ccccc2)n1 (stereo not drawn) the results were NPYLR7 agonist 24 and NPYLR7 agonist max-min 37.
Cc1cc(Oc2ccc3c(c2)OCO3)nc(SCc2ccccc2Cl)n1 was read as NPYLR7 agonist 11 and NPYLR7 agonist max-min 23.
For OCCC1CN(Cc2cccn2-c2nccs2)CCN1Cc1ccccc1F (stereo not drawn) the results were NPYLR7 agonist -7 and NPYLR7 agonist max-min -8.
CCCSc1ncccc1C(=O)Nc1ccc(Cl)cc1 was read as NPYLR7 agonist -6 and NPYLR7 agonist max-min -11.
Screening CCN1CCN(c2nc(CSc3ncccn3)cc(=O)[nH]2)CC1 returned NPYLR7 agonist 1 and NPYLR7 agonist max-min -1.
Screening COc1ccc(Cn2c(C(C)C)nc3oc4ccccc4c(=O)c3c2=O)cc1 returned NPYLR7 agonist 3 and NPYLR7 agonist max-min 1.
`CC(C)c1nccn1C(CCn1cncn1)c1ccccc1` (stereo not drawn) gave NPYLR7 agonist -4 and NPYLR7 agonist max-min -5.
`COc1ccccc1OCCN1C(=O)C(O)(CC(C)=O)c2ccccc21` (stereo not drawn) gave NPYLR7 agonist -1 and NPYLR7 agonist max-min -4.
For O=c1oc(-c2ccc(F)cc2)nc2sc3c(c12)CCC3 the results were NPYLR7 agonist 6 and NPYLR7 agonist max-min 5.
Cc1ccccc1Oc1ncccc1CNC(=O)c1ccc2c(c1)OCC(=O)N2 was read as NPYLR7 agonist -1 and NPYLR7 agonist max-min -4.

Sorted by formula weight (high to low): eleven of the compounds above.
For COCCNC(=O)c1coc(CN(Cc2ccc(Cl)c(Cl)c2)C(C)c2ccccc2)n1 (stereo not drawn) the results were NPYLR7 agonist 24 and NPYLR7 agonist max-min 37.
Screening Cc1cccc(-c2cc(N)n(-c3ccc(C(=O)N4CCCC5CCCCC54)cc3)n2)c1 (stereo not drawn) returned NPYLR7 agonist -6 and NPYLR7 agonist max-min -10.
For OCCC1CN(Cc2cccn2-c2nccs2)CCN1Cc1ccccc1F (stereo not drawn) the results were NPYLR7 agonist -7 and NPYLR7 agonist max-min -8.
Cc1ccccc1Oc1ncccc1CNC(=O)c1ccc2c(c1)OCC(=O)N2 was read as NPYLR7 agonist -1 and NPYLR7 agonist max-min -4.
Cc1cc(Oc2ccc3c(c2)OCO3)nc(SCc2ccccc2Cl)n1 was read as NPYLR7 agonist 11 and NPYLR7 agonist max-min 23.
Screening COc1ccc(Cn2c(C(C)C)nc3oc4ccccc4c(=O)c3c2=O)cc1 returned NPYLR7 agonist 3 and NPYLR7 agonist max-min 1.
For CCCc1cc(N2CCN(CC)CC2)n2nc3nc(C)cc(C)c3c2n1 the results were NPYLR7 agonist 4 and NPYLR7 agonist max-min 5.
Screening CCN1CCN(c2nc(CSc3ncccn3)cc(=O)[nH]2)CC1 returned NPYLR7 agonist 1 and NPYLR7 agonist max-min -1.
For Cc1ccsc1CN(C)C(=O)Nc1ccc(-n2ccnn2)cc1 the results were NPYLR7 agonist -3 and NPYLR7 agonist max-min 12.
For O=S(=O)(c1ccccc1F)N1CCCc2ccccc21 the results were NPYLR7 agonist -7 and NPYLR7 agonist max-min -9.
For O=c1oc(-c2ccc(F)cc2)nc2sc3c(c12)CCC3 the results were NPYLR7 agonist 6 and NPYLR7 agonist max-min 5.

(continued)
Screening CC(=O)N1CCCN(CC(=O)NC(C)c2ccc(C)c(C)c2)CC1 (stereo not drawn) returned NPYLR7 agonist 5 and NPYLR7 agonist max-min 1.
`O=C(O)C(Cc1ccccc1)NC(=O)C1CC(c2ccc(F)cc2)=NO1` (stereo not drawn) gave NPYLR7 agonist 1 and NPYLR7 agonist max-min -3.
`CCc1nc2ccc(C(=O)Nc3ccc(OC)c(OC)c3)cn2c1N(CC)C(=O)CCC1CCCC1` gave NPYLR7 agonist 13 and NPYLR7 agonist max-min 8.
`Cc1c(C)c(C)c(S(=O)(=O)NCc2nncn2C)c(C)c1C` gave NPYLR7 agonist 1 and NPYLR7 agonist max-min -1.
`CC(C)=CC1C(C(=O)NCC(C)(C)N2CCOCC2)C1(C)C` (stereo not drawn) gave NPYLR7 agonist -3 and NPYLR7 agonist max-min -2.
`CCC(C(=O)NC1CCC(n2cnnc2)CC1)N1Cc2ccccc2C1=O` (stereo not drawn) gave NPYLR7 agonist 2 and NPYLR7 agonist max-min -1.
Screening C=CCN1N=C(C)Cn2c1nc1c2c(=O)n(Cc2ccccc2C)c(=O)n1C returned NPYLR7 agonist 0 and NPYLR7 agonist max-min -2.
`COC(=O)C(=O)N1CCN(c2nc3nccc(C(C)(C)C)n3n2)CC1` gave NPYLR7 agonist 6 and NPYLR7 agonist max-min 1.
`COc1ccc(/C(C)=N\OCC(=O)N2CCOC(COCc3cccc(C(F)(F)F)c3)C2)cc1` (stereo not drawn) gave NPYLR7 agonist 24 and NPYLR7 agonist max-min 32.
`CCNc1ccc(S(=O)(=O)C(F)(F)F)cc1NC(=O)C12CCC(CC1)C2` gave NPYLR7 agonist -2 and NPYLR7 agonist max-min -3.
CCCN(CC1CC1)C(=O)CSc1nnc(NC2CC2)s1 was read as NPYLR7 agonist 18 and NPYLR7 agonist max-min 16.
O=C(c1ccco1)N1CCN(c2nccc(-c3ccc(N4CCOCC4)cc3)n2)CC1 was read as NPYLR7 agonist 29 and NPYLR7 agonist max-min 28.
For O=C(c1nc(-c2cnccn2)no1)N1CCn2c1nc1ccccc12 the results were NPYLR7 agonist 0 and NPYLR7 agonist max-min -2.
For CCOc1ccc(S(=O)(=O)NCCOc2ccc(-c3ccccc3)nn2)cc1 the results were NPYLR7 agonist -4 and NPYLR7 agonist max-min -5.
For CC(NC(=O)c1ccccc1)C(=O)Nc1nc2c(s1)CCCC2 (stereo not drawn) the results were NPYLR7 agonist 4 and NPYLR7 agonist max-min 2.
Screening C=Cn1cnc2c1c(=O)n(C)c(=O)n2C returned NPYLR7 agonist 6 and NPYLR7 agonist max-min 4.

Some of the compounds tested; rates above refer to the full screens.
